Screens deposited in PubChem BioAssay by several laboratories.
Beta2AR agonist: agonists of human beta-2 adrenergic receptor inducing internalization; actives 0.43% (n = 340,000); Am2.2-beta2AR cells, FAP receptor internalization, flow cytometry; reference of the scale not given here; P07550; response, % (concentration not given with the values);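 active means response above a set limit, near 3 SD of response in nonfluorescent compounds, cut at about 42% in these data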;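 further: stock transfer was 100 nL into about 11 µL; a reference agonist was the positive control; negative values mostly stem from fluorescent compounds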
UCH37 inh: inhibitors of human deubiquitinating enzyme UCH37; actives 0.33% (n = 330,000); Q9Y5K5; purified proteasome/UCH37, Ub-AMC cleavage fluorescence; AID 588478; inhibition, % (concentration not given with the values);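 active means mean of two replicates above 20%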;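 further: 0% = compound-free wells with enzyme and 100% = wells lacking proteasome; stock transfer was 100 nL into about 20 µL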
Target sequence (Q9Y5K5 whole entry, looked up): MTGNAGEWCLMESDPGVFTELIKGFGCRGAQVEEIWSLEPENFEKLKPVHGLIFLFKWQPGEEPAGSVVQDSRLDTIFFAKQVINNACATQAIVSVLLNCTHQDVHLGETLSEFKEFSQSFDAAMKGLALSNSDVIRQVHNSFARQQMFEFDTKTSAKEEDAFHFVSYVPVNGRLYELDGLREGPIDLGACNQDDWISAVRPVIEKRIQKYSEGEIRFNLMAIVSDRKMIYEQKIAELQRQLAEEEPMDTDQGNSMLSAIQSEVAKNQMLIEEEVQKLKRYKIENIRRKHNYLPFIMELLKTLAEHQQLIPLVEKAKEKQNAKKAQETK
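Material: Human UCH37 enzyme supplied as purified proteasome complex | Schedule: 30 min compound-proteasome preincubation then 25 min substrate reaction, room temperature | Detection: AMC fluorescence from Ub-AMC cleavage, excitation 355 nm, emission 460 nm | Benchmarks: Wells without proteasome as full block, compound-free enzyme plus substrate as uninhibited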
Ecoli growth: inhibitors of Escherichia coli growth; OD600, 23 h; hits give low values; OD600 absorbance (no concentration beside the values); actives 0.21% (n = 330,000);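 active means OD600 absorbance below the run mean of sample wells minus 3.6 SD, in any replicate, cut at about 0.56 in these data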;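 further: stock transfer was 300 nL into about 60 µL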
LANA-H2B inh: blocks KSHV LANA binding to histone H2A/H2B | Q9QR71 | cell-free LANA-H2A/H2B peptide, fluorescence polarization | inhibition, % (concentration not given with the values) | actives 0.6% (n = 320,000); in the data active means inhibition mostly above about 10%, no sharp cut-off; inactive means mostly below about 6.7%;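 further: stock transfer was 7.5 nL into about 10 µL; 0% = median of vehicle wells and 100% = median of positive control wells; one replicate is shown; the record names a cut of 25% in any replicate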
ALR H2O2 inh: inhibitors of human sulfhydryl oxidase ALR; P55789; purified ALR, DTT oxidation, H2O2 HRP-luminol luminescence; inhibition, % (test concentration not listed); actives 3.8% (n = 290,000);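 active means mean and each replicate at 75% or more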;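 further: stock transfer was 7.5 nL into about 7.5 µL; 0% = neutral wells and 100% = wells with inactivated enzyme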
Target sequence (P55789 whole entry, looked up): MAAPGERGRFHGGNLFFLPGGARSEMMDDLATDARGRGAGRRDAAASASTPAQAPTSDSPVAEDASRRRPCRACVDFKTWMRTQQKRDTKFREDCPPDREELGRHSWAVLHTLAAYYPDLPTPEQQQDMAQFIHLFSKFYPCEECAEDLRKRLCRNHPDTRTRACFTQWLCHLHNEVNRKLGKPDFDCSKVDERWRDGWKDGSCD
FGF22 binding: binders of recombinant human FGF22 by thermal shift | SYPRO orange fluorescence; percent of sucrose octasulfate shift, DMSO zero | calls only at 9.99 µM | actives 1.5% (n = 340,000) | AID 651658;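 active means melting point raised past a set limit in the mean and every replicate; three in four hits are not shown here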
HNF4A DNA FP: change in binding of human HNF4 alpha to DNA; P41235; HNF4a-FITC DNA binding, fluorescence polarization, 1 h; activity change, % at 10 µM; actives 0.3% (n = 360,000); AID 1224865; in the data active means activity change above about 30%, passing the limit was not always enough;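 further: controls were the assay level and a saturating level of protein; the project sought stronger binding though the title names inhibitors; some compounds called inactive have numbers as strong as hits; positive values seem to mean higher polarization but the record does not say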
Target sequence (P41235 whole entry, looked up): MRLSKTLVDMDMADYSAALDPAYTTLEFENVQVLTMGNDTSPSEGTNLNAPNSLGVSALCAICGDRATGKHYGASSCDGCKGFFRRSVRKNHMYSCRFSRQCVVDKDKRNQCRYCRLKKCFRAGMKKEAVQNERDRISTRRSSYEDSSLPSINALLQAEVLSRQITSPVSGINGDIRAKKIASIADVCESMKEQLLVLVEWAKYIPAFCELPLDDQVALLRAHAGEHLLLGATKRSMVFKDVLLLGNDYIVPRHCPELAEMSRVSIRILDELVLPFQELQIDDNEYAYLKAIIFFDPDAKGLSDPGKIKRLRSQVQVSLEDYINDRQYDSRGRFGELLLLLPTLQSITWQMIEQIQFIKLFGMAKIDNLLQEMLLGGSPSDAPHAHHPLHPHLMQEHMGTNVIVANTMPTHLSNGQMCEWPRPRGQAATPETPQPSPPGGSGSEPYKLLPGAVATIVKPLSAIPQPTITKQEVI
The depositor's hits bear a star; i = inactive; nt = not tested or not shown.

SMILES	Beta2AR agonist	UCH37 inh	Ecoli growth	LANA-H2B inh	ALR H2O2 inh	FGF22 binding	HNF4A DNA FP
CCC(=O)NNc1ncnc2ccccc12	0	11	0.69	-5.9	20	i	-0.2
CCOC(=O)C1CCCN(C(=O)c2ccc(S(=O)(=O)N3CCOCC3)cc2)C1 (stereo unspecified)	31	-2.8	0.7	-1.3	2	i	3.3
Cc1cc(C)cc(NC(=S)N2CCN(CCO)CC2)c1	-6	1.0	0.71	-2.3	-1	nt	2.0
CCOC(=O)C(C)Sc1nnc2c3ccccc3n(C)c2n1 (stereo unspecified)	0	8.3	0.67	0.0	3	i	2.4
Cc1ccc(NC(=S)N(CCCN2CCOCC2)Cc2ccco2)cc1Cl	2	-1.2	0.7	1.3	-16	nt	-2.0
O=C1CC(C2CCCO2)C(=O)N1c1ccccc1 (stereo unspecified)	5	3.6	0.7	-3.6	-11	nt	-0.8
COc1ccc2c(c1)C(C)CC(C)(C)N2C(=O)Nc1ccccc1 (stereo unspecified)	-4	3.1	0.63	1.4	5	i	-0.1
Cc1cc(NC(=O)CN2C(=O)NC3(CCCCCC3)C2=O)ccc1Br	4	5.9	0.65	-0.1	nt	i	0.3
CCOC(=O)C1=C(C)N(C)C(=O)NC1c1ccccc1OC (stereo unspecified)	-1	2.9	0.74	-4.2	-4	nt	0.4
O=C(CCCC(=O)N(CC(=O)NC1CCCC1)c1cccc(F)c1)Nc1ccccn1	-4	-0.2	0.61	-1.6	-8	i	-2.5
O=C(/C=C/c1ccc2c(c1)OCO2)NCCSCc1c(Cl)cccc1Cl	77*	-7.0	0.69	-1.4	-3	nt	-1.2
COc1cccc(CN(C)C(=O)c2ccc(NS(=O)(=O)c3ccc4[nH]c(=O)[nH]c4c3)cc2)c1OC	-3	-1.2	0.73	-3.9	1	i	2.0
CC1CCCC(C)N1CC(O)COC1CCC(C(C)(C)C)CC1 (stereo unspecified)	13	2.9	0.64	-3.5	-19	i	1.6
CC(=O)NCC(=O)NC1(C(=O)NC2CCCC2)CCCCC1	13	2.2	0.7	-0.4	0	nt	-0.7
Cn1c(N)cc(=O)[nH]c1=S	-4	-2.0	0.71	nt	nt	i	0.5
Cc1csc2c(N3CCN(C(=O)Nc4ccc(OC(F)(F)F)cc4)CC3)ncnc12	-1	3.5	0.61	1.1	-5	i	0.3
O=C(c1ccc(S(=O)(=O)N2CCCC2)cc1)N1CCCc2ccccc21	-6	1.6	0.72	1.6	-11	nt	3.3
N#CC(C#N)=C1C=C2C=C(N3CCCCC3)CCC2CC1 (stereo unspecified)	nt	11	0.64	-152	99*	nt	nt
COC(=O)c1nn(-c2ccccc2)c(Cl)c1/C=N/OCc1ccc(C)cc1	5	nt	nt	6.9	nt	nt	-3.0
CCC(=O)Nc1nc2ccccc2n1Cc1ccc(Cl)cc1	-1	2.8	0.63	-4.6	nt	i	2.3
CC(C)NC(=S)N/N=C/c1ccc(C(C)(C)C)cc1	3	nt	nt	0.4	-7	i	-0.6
COc1ccccc1OCCn1cc(C=O)c2ccccc21	-4	5.0	0.7	-0.2	-12	i	0.3
O=C(O)c1ccc2c(=O)n(-c3ccccc3)c(=S)[nH]c2c1	2	-1.5	0.74	-2.1	-4	i	-0.3
c1ccc(-c2nc(CSc3nnnn3-c3ccccc3)cs2)cc1	-6	-0.1	0.64	0.7	-1	nt	-2.0
Oc1ccc(/C=N/NC(=S)Nc2cccnc2)c(O)c1O	67*	nt	nt	nt	nt	i	-11
Other results.
SMILES	Beta2AR agonist	UCH37 inh	Ecoli growth	LANA-H2B inh	ALR H2O2 inh	FGF22 binding	HNF4A DNA FP
CC(=O)c1ccc(Nc2nc(-c3cccnc3)cs2)cc1	1	1.1	0.7	2.1	-6	i	0.1
CCOC(=O)N1CCN(C(=O)COc2ccc3c(c2)C(=O)CC(C)(C)O3)CC1	1	-421	0.68	-0.6	-2	i	-4.1
Cc1cc(C#Cc2c(-c3ccccc3)n(C)c3ccccc23)ccc1F	2	nt	nt	-12	4	i	9.1
Cc1cccc(NC(=O)C2c3ccccc3C(=O)N3CCc4ccccc4C23)n1 (stereo unspecified)	-1	5.8	0.73	6.8	32	nt	0.6
CCCCc1nnc(NC(=O)C2CCN(c3ncnc4sc(C)c(C)c34)CC2)s1	12	-6.5	0.67	3.0	nt	i	4.2
CC1CCCN(c2nc3c(c(=O)n(C)c(=O)n3C)n2CCSc2nc3ccccc3s2)C1 (stereo unspecified)	-3	1.6	0.71	-5.2	50	nt	5.5
COc1ccc(/C=N/N2CCN(Cc3ccc(C)cc3)CC2)cc1Br	-4	nt	nt	1.1	-2	i	0.9
Cc1ccc(C(=O)NC(=S)Nn2cnnc2)cc1	-7	nt	nt	8.3	-52	nt	3.9
Oc1cccc2ccc(N3CCOCC3)nc12	-1	-56	0.63	1.8	nt	i	-0.2
CCOC(=O)C1CCN(C(=O)c2ccc3c(=O)n4nc(Nc5cc(C)ccc5C)sc4nc3c2)CC1	21	-5.2	0.67	-0.5	-11	i	0.3
CCCc1cc(NC(=O)COC(=O)c2nccnc2N)n(-c2ccccc2)n1	-5	-450	0.68	2.8	nt	i	4.8
O=[N+]([O-])c1ccc(S(=O)(=O)N2CCN(Cc3ccco3)CC2)cc1	1	1.3	0.7	0.5	nt	i	0.4
O=C(c1cc(-c2ccccn2)nc2c(Cl)cccc12)N1CCN(S(=O)(=O)c2ccccc2)CC1	3	3.0	0.71	-4.0	-5	nt	4.6
Cc1ccccc1C(=O)NNC(=S)NC(=O)COc1ccccc1	29	2.7	0.66	2.2	22	i	3.8
COc1cccc(Nc2nc3cc(OC)ccc3cc2C#N)c1	7	-235	0.74	0.8	-1	i	1.5
COC(=O)c1sc(S(=O)(=O)Nc2ccc(C)cc2)c(C(=O)OC)c1C	-3	-1.0	0.67	-6.1	4	nt	1.2
COc1ccccc1NC(=O)c1ccc(NC(=O)CN2CCCCC2)cc1	0	1.1	0.69	-4.8	-2	i	4.2
Cc1cccc(NC(=O)CCN2C(=O)c3ccccc3C2=O)c1	2	1.1	0.67	-2.1	-4	i	2.0
Cc1ccc(S(=O)(=O)N2CCN(c3ccccc3)CC2)cc1C	-2	3.0	0.62	4.7	9	i	-1.6
CCc1nnc(NC(=O)CCS(=O)(=O)Cc2ccccc2)s1	11	1.1	0.7	3.1	nt	i	4.0
O=C(CCc1c[nH]c2ccccc12)Nc1ncccc1O	-1	3.2	0.73	-2.0	20	i	-4.1
Cc1cccnc1NC(=S)NC(=O)c1cncc(Br)c1	12	2.1	0.7	2.8	5	i	1.2
Cc1ccc(C(=O)Nc2ccc(NC(=O)c3ccco3)c(C)c2)cc1	-14	3.0	0.62	7.6	5	i	-0.8
O=C(c1ccncc1)N1N=C(C2CCCCC2)CC1(O)C(F)(F)F (stereo unspecified)	nt	2.9	0.65	2.2	0	nt	-1.0
NS(=O)(=O)c1ccc(N/N=C/c2cn(-c3ccccc3)nc2-c2cccs2)c([N+](=O)[O-])c1	38	nt	nt	-0.2	-13	i	-0.2
(listing goes on)
SMILES	Beta2AR agonist	UCH37 inh	Ecoli growth	LANA-H2B inh	ALR H2O2 inh	FGF22 binding	HNF4A DNA FP
COc1ccc(N2CCN(CCNC(=O)Nc3ccc(C)cc3Cl)CC2)cc1	-4	0.1	0.68	-0.5	63	i	1.8
CSc1cccc(NC(=O)CN(Cc2ccc(Cl)cc2)S(C)(=O)=O)c1	-3	5.4	0.69	0.0	-9	nt	5.8
O=C(CCS(=O)(=O)Cc1ccccc1F)NCCCN1CCCCC1	0	-2.7	0.74	0.4	-3	nt	1.8
COC(=O)c1cc(=O)n(CCc2ccccc2)c(=Nc2ccc(F)cc2)s1	4	6.8	0.79	-2.6	16	i	1.0
Cc1ccc(CN2C(=O)CSc3ccc(C(=O)NC4CC4)cc32)cc1	-30	6.1	0.68	-5.6	nt	i	3.3
CN1CCSc2ccc(C(=O)Nc3ccc(Cl)cc3)cc21	-1	nt	nt	-0.3	2	i	-1.0
Cc1c(C(=O)NNS(=O)(=O)c2ccccc2Cl)sc(=S)n1C	-10	5.2	0.65	-3.4	2	i	-2.8
O=C1/C(=C/c2ccc([N+](=O)[O-])cc2)CCC1C1CCCC1 (stereo unspecified)	11	4.5	0.68	-2.9	-2	i	-0.7
Cc1noc(C(=O)NCc2ccco2)c1Cl	3	0.8	0.74	7.4	nt	i	4.1
COC(=O)C1=C(O)CSC1=Nc1ccccc1	-3	4.6	0.72	0.6	-5	nt	2.6
CC(CC(=O)c1ccc(F)cc1)N1CCN(c2ccccc2)CC1 (stereo unspecified)	-2	nt	nt	nt	nt	i	-0.9
O=c1ccnc2n1COCS2	-4	4.5	0.68	1.3	-14	i	-2.3
CCCc1cc(CN2CCOCC2)c(O)c(CN2CCOCC2)c1O	-1	nt	nt	nt	nt	i	1.0
O=c1ncn(-c2cccc(F)c2)c2ncccc12	4	3.4	0.69	0.8	0	nt	4.2

Three compounds out of the list above, arranged by the number in Beta2AR agonist, lowest first:
| compound | Beta2AR agonist | UCH37 inh | Ecoli growth | LANA-H2B inh | ALR H2O2 inh | FGF22 binding | HNF4A DNA FP |
| --- | --- | --- | --- | --- | --- | --- | --- |
| Cc1c(C(=O)NNS(=O)(=O)c2ccccc2Cl)sc(=S)n1C | -10 | 5.2 | 0.65 | -3.4 | 2 | i | -2.8 |
| O=c1ccnc2n1COCS2 | -4 | 4.5 | 0.68 | 1.3 | -14 | i | -2.3 |
| CSc1cccc(NC(=O)CN(Cc2ccc(Cl)cc2)S(C)(=O)=O)c1 | -3 | 5.4 | 0.69 | 0.0 | -9 | nt | 5.8 |

By substructure, the entries above containing a Cl atom.
SMILES	Beta2AR agonist	UCH37 inh	Ecoli growth	LANA-H2B inh	ALR H2O2 inh	FGF22 binding	HNF4A DNA FP
Cc1ccc(NC(=S)N(CCCN2CCOCC2)Cc2ccco2)cc1Cl	2	-1.2	0.7	1.3	-16	nt	-2.0
O=C(/C=C/c1ccc2c(c1)OCO2)NCCSCc1c(Cl)cccc1Cl	77*	-7.0	0.69	-1.4	-3	nt	-1.2
COC(=O)c1nn(-c2ccccc2)c(Cl)c1/C=N/OCc1ccc(C)cc1	5	nt	nt	6.9	nt	nt	-3.0
CCC(=O)Nc1nc2ccccc2n1Cc1ccc(Cl)cc1	-1	2.8	0.63	-4.6	nt	i	2.3
O=C(c1cc(-c2ccccn2)nc2c(Cl)cccc12)N1CCN(S(=O)(=O)c2ccccc2)CC1	3	3.0	0.71	-4.0	-5	nt	4.6
COc1ccc(N2CCN(CCNC(=O)Nc3ccc(C)cc3Cl)CC2)cc1	-4	0.1	0.68	-0.5	63	i	1.8
CSc1cccc(NC(=O)CN(Cc2ccc(Cl)cc2)S(C)(=O)=O)c1	-3	5.4	0.69	0.0	-9	nt	5.8
CN1CCSc2ccc(C(=O)Nc3ccc(Cl)cc3)cc21	-1	nt	nt	-0.3	2	i	-1.0
Cc1c(C(=O)NNS(=O)(=O)c2ccccc2Cl)sc(=S)n1C	-10	5.2	0.65	-3.4	2	i	-2.8
Cc1noc(C(=O)NCc2ccco2)c1Cl	3	0.8	0.74	7.4	nt	i	4.1

These rows are one share of the data, so the mix of outcomes need not match the whole.
